# TAR Tat displ: HIV-1 TAR-Tat binding disruption; HIV-1 TAR RNA, Tat peptide displacement FRET; stronger effect = higher value; z-score (concentration not given with the values); hit rate 0.6% among 100,000;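 further: score is relative to mean and SD of negative controls; some compounds called inactive have numbers as strong as hits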
# CDC25B CDK2 inh: human CDC25B-CDK2/CyclinA binding inhibition. P30305+P24941. HTRF CDC25B-CDK2/CyclinA binding, anti-His/anti-Flag; stronger effect = higher value. z-score (no concentration beside the values). hit rate 0.72% among 94,000. AID 1259370;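 further: score is relative to mean and SD of negative controls; strong numbers were not always called active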
# Numbers without * were called inactive; · = not tested or not shown.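 How the source made its calls: active means z-score from 3 up in half or more of its runs; inactive means the rest.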
canonical_smiles	TAR Tat displ	CDC25B CDK2 inh
CC(C(=O)NC(C)(C)C)n1sc2ccccc2c1=O (stereo not drawn)	1.2	-1.1
Cc1cc(C)cc(-n2nnc(-c3nc(-c4ccccc4)no3)c2N)c1	-0.61	·
CCOc1ccc(OC(=O)c2sc3ncn(CC)c(=O)c3c2C)cc1	·	-2.2
COC(=O)c1c(N)sc(C)c1C	-12	·
Cc1ccc(CN2c3ccsc3C(=O)CS2(=O)=O)cc1	0.44	-0.96
CCC(=O)N1CCc2cc(Br)cc(S(=O)(=O)CCC(=O)NCCOC)c21	·	0.54
CCc1ccc(-c2cc(C)no2)cc1S(=O)(=O)N1CCc2ccccc2C1	0.38	·
Cc1cc(-c2ccc(S(=O)(=O)NCCc3ccc(Cl)cc3)s2)on1	-0.56	·
Cn1c(C(=O)NCCCN2CCCCC2)c(N2CCCC2=O)c2cc(F)ccc21	-0.55	·
CC(NC(=O)CSc1nc(-c2cccc(Cl)c2)nc2cc(=O)[nH]n12)c1nc2ccccc2n1C (stereo not drawn)	-2.4	·
CCn1cc(C(=O)O)c(=O)c2cc(F)c(N3CCN(C(=O)Nc4cccc5ccccc45)CC3)cc21	·	-3
COc1cc(NC(=O)c2c(N3CCCC3=O)c3cc(OC)ccc3n2C)cc(OC)c1	-0.26	·

# Reprinted at random: two records from the list
canonical_smiles	TAR Tat displ	CDC25B CDK2 inh
COC(=O)c1c(N)sc(C)c1C	-12	·
CCn1cc(C(=O)O)c(=O)c2cc(F)c(N3CCN(C(=O)Nc4cccc5ccccc45)CC3)cc21	·	-3

# More results follow:
canonical_smiles	TAR Tat displ	CDC25B CDK2 inh
N#CCc1ccc(Oc2ccc(C(F)(F)F)cn2)cc1	·	-1.1
CCOC(=O)CNC(=O)N1CCC(n2nnc3ccccc3c2=O)CC1	0.93	·
Cn1cc(S(=O)(=O)N2CCCC2)cc1C(=O)N1CCn2c1nc1ccccc12	0.88	·
O=c1[nH]nc(-c2ccccc2)c2c1Nc1nnnn1C2c1ccccc1F (stereo not drawn)	0.52	-0.08
O=C(CCC1CCCC1)Nc1nc2ccc(Cl)cc2o1	-0.62	·
CC(C)c1ccc(S(=O)(=O)N2CCN(S(=O)(=O)c3ccc(C(C)C)cc3)C(C)C2)cc1 (stereo not drawn)	0.24	0.32
CCC12CN3CC(CC)(CN(C1)C3c1ccc(O)cc1)C2=O (stereo not drawn)	-0.22	-0.3
CC(CC(=O)N1CCCCC1)S(=O)(=O)c1ccc2c(c1)NC(=O)CS2 (stereo not drawn)	-4.4	·
CC(CC(=O)Nc1ccc(F)cc1)S(=O)(=O)c1ccc2c(c1)CCN2C(=O)C1CC1 (stereo not drawn)	-1.4	·
Cc1ccccc1CSc1nc2nccnc2c(=O)n1Cc1ccc2c(c1)OCO2	-0.17	0.69
COc1ccc(S(=O)(=O)N2CCc3cc4cc(C)ccc4nc32)cc1OC	-0.54	-1.6
Cc1ccc(C2=Nc3ccccc3NC(c3ccncc3)=N2)cc1	0.7	-1.4
CCOCCCNC(=O)CCCn1c(=O)[nH]c2ccsc2c1=O	-2.4	-0.79
CC1=C(C(=O)OC2CCCC2)C(c2cccc(O)c2)C2=C(CC(c3ccccc3)CC2=O)N1 (stereo not drawn)	-0.23	-0.76
CCOc1ccc(S(=O)(=O)NCc2cccnc2)cc1C(C)C	1	-1.3
COc1ccccc1CNS(=O)(=O)c1ccc2oc(C(=O)O)c(C)c2c1	·	-0.46
O=C(NCc1ccccn1)c1cc(-c2cccnc2)nc2ccc(Br)cc12	0.88	·
CCN1CNC(=S)N(c2ccc(C)cc2C)C1	·	-1.9
COc1ccccc1C1C=C(c2ccc(Cl)cc2)Nc2nnnn21 (stereo not drawn)	1.5	·
CC1CSc2ccc(S(=O)(=O)N3CCCCC3)cc2NC1=O (stereo not drawn)	1.4	·
CCOC(=O)c1cnc2c(ccc3ccccc32)c1NCc1cccnc1	·	-0.38
CC1CCCCN1S(=O)(=O)c1ccc(S(=O)(=O)N2CCN(c3ncccn3)CC2)cc1 (stereo not drawn)	-0.28	-1.5
Cc1ccc(C(=O)NCCN2CCOCC2)cc1NC1=NC2CS(=O)(=O)CC2S1 (stereo not drawn)	0.57	-1.4
CCOc1ccc(Nc2nc3ccccc3c3nnc(CC)n23)cc1	2.4	-3.4
CNC(=S)NN(C)c1cccc(F)c1C#N	·	-1.7
Cc1ccc(I)cc1N=C(N)N=C(N)N	·	-1.9
CN1C(=O)c2cc(NC(=O)c3cccs3)ccc2N2CCN=C12	1	·
CCc1nc(C)cn1S(=O)(=O)c1cc(Br)ccc1OC	0.06	-2.2
O=C(CN(C1=NC2CS(=O)(=O)CC2S1)c1cccc(Cl)c1)NCC1CCCO1 (stereo not drawn)	0.77	0.39
CCOC(=O)c1c(N2C(=O)CC(Sc3ccccc3C(=O)O)C2=O)sc(C)c1C (stereo not drawn)	-1.5	1.7
O=S1(=O)c2ccccc2NC(c2cccc(Cl)c2)N1Cc1ccccc1 (stereo not drawn)	·	-0.24
CN(C)c1cccc2c(S(=O)(=O)N3CCCCC3)cccc12	0.21	-0.85
O=C(CCC1=NS(=O)(=O)c2cc(Br)cnc2N1)NCc1ccccn1	1	-1.7
COC(=O)c1ccccc1NC(=O)CCN1C(=O)c2cccc([N+](=O)[O-])c2C1=O	·	-1.9
O=C1c2[nH]nc(-c3ccccc3O)c2C(c2ccc(Cl)cc2)N1Cc1ccco1 (stereo not drawn)	1.2	-0.19
C=CCSc1nc2c(c(=O)[nH]1)C(c1ccc(C(=O)OC)cc1)C(C(=O)OCC)=C(C)N2 (stereo not drawn)	-0.58	-1.2
O=C1COc2cc(S(=O)(=O)N3CCN(C(=O)c4ccco4)CC3)c(Cl)cc2N1	-0.44	·
COC(=O)CC(=O)Nc1cc2c(cc1N1CCCCC1)n(C)c(=O)n2C	1	-1.1
CN1C(=O)C(C)(C)c2cc(S(=O)(=O)Nc3ccc4c(c3)OCCO4)ccc21	1.1	·
CN(C)S(=O)(=O)c1ccc2c(c1)N(CC(=O)O)CCS2	1.2	·
CCC(C)N(CCNC(=O)c1nn(C)c2c1COc1ccccc1-2)Cc1ccco1 (stereo not drawn)	-0.06	-0.7
Cc1ccccc1-c1nn2c(C)nnc2s1	1.1	1.6
CCc1ccc(NS(=O)(=O)c2cc(-c3cnc(C)o3)ccc2C)cc1	1.8	·
COc1ccc(OC)c(S(=O)(=O)Nc2cc3c(cc2Cl)n(C)c(=O)c(=O)n3C)c1	-0.24	-1.6
N#Cc1nc(/C=C/c2cccs2)oc1N1CCN(C(=O)c2ccccc2Cl)CC1	0.19	-2.2
c1ccc(-c2csc3ncn4cnnc4c23)cc1	1.2	-1.4
Cc1nc(N2CCCC2)ncc1C(=O)N1CCOCC1	1.6	·
CCOC(=O)c1nc(Nc2ccc(Cl)cc2)c2c(C)noc2n1	-0.45	·

# Part of the list above, with values under each structure:
# Sequence of screens – TAR Tat displ, CDC25B CDK2 inh
- CCc1ccc(NS(=O)(=O)c2cc(-c3cnc(C)o3)ccc2C)cc1
    1.8, ·
- COc1ccc(OC)c(S(=O)(=O)Nc2cc3c(cc2Cl)n(C)c(=O)c(=O)n3C)c1
    -0.24, -1.6
- N#Cc1nc(/C=C/c2cccs2)oc1N1CCN(C(=O)c2ccccc2Cl)CC1
    0.19, -2.2
- c1ccc(-c2csc3ncn4cnnc4c23)cc1
    1.2, -1.4
- Cc1nc(N2CCCC2)ncc1C(=O)N1CCOCC1
    1.6, ·

# Following part.
canonical_smiles	TAR Tat displ	CDC25B CDK2 inh
COc1ccc(C(=O)n2cc3c(n2)-c2cc(Cl)ccc2SC3)cc1	·	-1.1
CCc1cc2c3c([nH]c2cc1S(=O)(=O)NC(C)(C)C)CC(C)(C)CC3=O	1.1	·
Cc1nc(CNS(=O)(=O)c2ccc3c(c2)CCCC3)cs1	1.1	-0.43
COc1ccccc1NC(=O)Nc1nnc(N(C)C2CCCCC2)s1	0.87	-2.3
CCC(C)NS(=O)(=O)c1ccc(-c2ccc(=O)[nH]n2)o1 (stereo not drawn)	2.9	·
COc1cccc(OCCSc2nc3ccccc3n2CC(=O)OC(C)C)c1	1.4	1.3
COc1ccc(N2CCN(C(=O)C3=Cc4sc5c(c4CS3)CCCC5)CC2)cc1	-1	·
Cn1c(Cn2c(=O)sc3ccccc32)nnc1SCC(=O)Nc1nc2ccccc2s1	·	-0.89
COc1cc2c(=O)n(C3CCCC3)c(=O)n(CC(=O)N3CCCCC3C)c2cc1OC (stereo not drawn)	1.2	-0.45
CC1CCN(CCCNC(=O)CC(=O)Nc2ccc3nc4n(c(=O)c3c2)CCCCC4)CC1	·	-1.4
COC(=O)c1sccc1NC(=O)Cn1c(C)cc(C)c(C#N)c1=O	0.7	·
Cc1cc(C)n(CC(=O)NC2CCCC2)c(=O)c1C#N	0.7	·

# Filtered by structure: the entries above containing a tert-butyl group.
canonical_smiles	TAR Tat displ	CDC25B CDK2 inh
CC(C(=O)NC(C)(C)C)n1sc2ccccc2c1=O (stereo not drawn)	1.2	-1.1
CCc1cc2c3c([nH]c2cc1S(=O)(=O)NC(C)(C)C)CC(C)(C)CC3=O	1.1	·

# (listing goes on)
canonical_smiles	TAR Tat displ	CDC25B CDK2 inh
Cc1ccc(C2CC(C(F)(F)F)n3nc(C(N)=O)cc3N2)cc1 (stereo not drawn)	2.4	-0.47
CCOC(=O)c1nn(-c2ccc(OC)cc2)c(=O)c2c(N)c(C#N)ccc12	·	-0.61
CN(CCc1noc(-c2ccc(Cl)cc2)n1)S(=O)(=O)c1ccc2c(c1)n(C)c(=O)c(=O)n2C	0.6	·
CC(C)CCNC(=O)c1ccc2c(=O)[nH]c3c(C(=O)NC(C)C)sc(=S)n3c2c1	2.2	·
CCOC(=O)C1=NN(c2ccc(Cl)cc2)C2C(=O)N(c3ccc(OC)cc3)C(=O)C12 (stereo not drawn)	·	-1.1
Cn1c2cn(-c3ccccc3O)c(-c3ccccc3)c2c(=O)n1-c1ccccc1	-4.8	-0.8
CCn1nc(C)c(CNS(=O)(=O)c2ccc(OC)c(OC)c2)c1C	-0.75	·
Cc1ccc2c(c1)NC(c1cccnc1)=NC(c1ccncc1)=N2	-0.96	-2.8
COc1ccc(C2CC(=O)Nc3nc(N)[nH]c(=O)c32)cc1 (stereo not drawn)	0.84	1.2
CN(Cc1ccccc1)c1csc2ccc(F)cc2c1=O	0.35	·
O=C1CCCC2=C1C(c1ccc(Cl)cc1)n1ncnc1N2 (stereo not drawn)	·	-1.9
CCCN(CCC)C(=O)NC1=C(C#N)C(C)(C)Cc2ccccc21	1.7	-0.16
COc1ccc(N2CCCS2(=O)=O)cc1NS(=O)(=O)c1ccc2c(c1)CCCC2	-0.2	·
CCOC(=O)C1=C(C)NC2=C(C(=O)CC(C)(C)C2)C1c1ccc(O)c(OCC)c1 (stereo not drawn)	-0.07	0.9
O=c1c(-c2nn[nH]n2)coc2ccccc12	·	-1.4
CS(=O)(=O)c1cccc(C(=O)O)c1	·	-0.71
O=c1c2nccnc2nc(SCc2cccc(F)c2)n1Cc1ccccc1Cl	1.6	-0.43
COc1ccc(C2C(=O)N(C3CCCCC3)CC(=O)N2CCC2=CCCCC2)cc1 (stereo not drawn)	·	-1.9
Nc1ncn(CCc2ccccc2)n1	-0.56	·
Cc1nc(SCc2cc(=O)c3cccc(F)c3[nH]2)n[nH]1	1.3	·
COc1ccc(-c2onc(C)c2C)cc1S(=O)(=O)Nc1ccc(C)c(C)c1	1.2	·
Cc1ccccc1-n1c(C)c(C)c2c1ncn1nc(-c3ccncc3)nc21	0.46	-2.2
CCCc1c(C)nc2ncnn2c1Nc1ccc(OC)c(OC)c1	-0.4	-1.1
CCc1n(CC(O)COCC2CC=CCC2)c2ccccc2[n+]1C (stereo not drawn)	0.92	0.91
COc1ccc2nc3sc(C(=O)Nc4cnc5ccccc5c4)cc3cc2c1	·	-0.53
O=C(c1cc(-c2ccco2)[nH]n1)N1CCN(S(=O)(=O)c2ccc(Cl)cc2)CC1	-9.7	·
Cc1nc2ncnn2c(N2CCN(Cc3ccccc3)CC2)c1C	0.95	·
Cc1ccc(-c2cc(N)n(S(=O)(=O)c3ccc(F)cc3)n2)cc1	·	-2.2
CCc1ccc(-n2nnc(-c3nc(-c4ccccc4F)no3)c2C)cc1	1.2	·
C=CCOc1cc(C2CC(=O)Nc3c2c(C)nn3-c2nncc(-c3ccc(C)cc3)n2)ccc1OC (stereo not drawn)	1.4	·
CCSc1nc2c(c(=O)[nH]1)C(c1ccc(F)cc1)C(C(=O)OC)=C(C)N2 (stereo not drawn)	·	-0.3
COc1ccc2nc(-n3nc(C)c4c3NC(=O)CC4c3cc(C)sc3C)sc2c1 (stereo not drawn)	1.5	·
Cc1nc(-c2ccc(NS(=O)(=O)c3ccc4ccccc4c3)cc2)cs1	3.9	-0.35
O=C(NC1(C(F)(F)F)Oc2ccccc2O1)N1CCCCCC1	·	1.1
Cc1c(C(=O)NCC(c2ccco2)N(C)C)oc2cc(Br)ccc12 (stereo not drawn)	0.27	0.23
O=C(CSc1ccc(-c2ccncc2)nn1)Nc1ccc2c(c1)OCO2	1.6	·
CCC1c2ccc(C)n2CCN1C(=O)Nc1cccc(Br)c1 (stereo not drawn)	-9.7	-0.19
CCC(=O)N1CCc2cc(S(=O)(=O)NC(CC(C)C)C(=O)Nc3ccc(Cl)cc3)ccc21 (stereo not drawn)	·	-1.4
Cn1c(C(=O)N2CCOCC2)c(N2CCCC2=O)c2cc(F)ccc21	1.4	·
CCOC(=O)c1c(C)noc1/C(C)=N\OC(=O)c1ccccc1	·	-4.1
Cc1cccc(C)c1OCCOc1cccc(/C=C2\SC(N)=NC2=O)c1	·	-0.64

# High-throughput results deposited in PubChem by Center for Chemical Genomics, University of Michigan.

# Rows were taken by chance; 0.89% or so of the library scored in one or more.
